GIV Gai3 FP: blocks GIV peptide binding to rat Galpha-i3; 210,000 tested, 0.42% active; AID 1224905; percent of control (FP), % (concentration not given with the values); Galpha-i3/FITC-GIV peptide fluorescence polarization, 90 min; active compounds read low; scaled: aluminum fluoride 0%, vehicle 100%; P08753;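 active = replicate mean at 85% of control or lower, very high polarization wells dropped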;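 note: wells of about 15 µL received 100 nL stock; the first replicate is given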
Target sequence (P08753 whole entry, looked up): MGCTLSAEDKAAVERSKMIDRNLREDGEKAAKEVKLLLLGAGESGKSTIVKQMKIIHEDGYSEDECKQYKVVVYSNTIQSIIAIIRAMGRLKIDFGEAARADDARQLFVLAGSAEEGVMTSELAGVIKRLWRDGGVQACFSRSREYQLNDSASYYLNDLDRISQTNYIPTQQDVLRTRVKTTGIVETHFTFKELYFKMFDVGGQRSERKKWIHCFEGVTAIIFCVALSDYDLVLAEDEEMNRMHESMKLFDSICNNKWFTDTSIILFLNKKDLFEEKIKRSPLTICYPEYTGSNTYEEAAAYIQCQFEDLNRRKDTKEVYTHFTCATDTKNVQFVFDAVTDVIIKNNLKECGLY
Sa growth 42C: blocks Staphylococcus aureus growth; S. aureus RN4220 growth, OD600, 20 h, 42 °C; active compounds read low; relative growth, % (test concentration not listed); 170,000 tested, 0.53% active; AID 720641;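 active = growth at 42 °C up to 50% and 20 or more points under that at 30 °C, or under 10% at both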;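 note: 300 nL library stock went into each well; scaled to the means of positive and negative controls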
HCMV NEC inh: cytomegalovirus nuclear egress complex inhibition | HTRF UL50-UL53 interaction, normalized percent inhibition | inhibition, % (test concentration not listed) | 190,000 tested, 0.15% active;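 active = both replicates at 50% or more, plus weaker picks with an unusually low signal ratio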;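 note: stock transfer was 100 nL into about 20 µL; 0% = negative control wells and 100% = wells with untagged competitor protein; inactives centre near -12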
Sa growth 42C second temp: second read-out of Sa growth 42C, no call of its own (marks repeat the call); relative growth, %; measured here: growth at 30 °C;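 optical density after 20 h as mean of two plates; 100% = untreated growth and lower means inhibition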
* = called active by the depositor; . = not tested or not shown; & = joins results of further samples.

SMILES	GIV Gai3 FP	Sa growth 42C	Sa growth 42C second temp	HCMV NEC inh
Cc1nnc2c(NCCN3CCN(c4cccc(Cl)c4)CC3)nc3ccccc3n12	100.9	81.7	84.6	-2.2
Cc1c(-c2ccnn2C(=O)c2ccc(C(F)(F)F)cc2)sc2ccccc12	98.6	71.8	84.4	-17.9
c1ccc(OCc2nnc3n2N=C(c2ccccc2)CS3)cc1	99.8	70.8	44.3	-28.6
COc1ccc(-n2nc(C(=O)N3CCN(C)CC3)nc2-c2ccccc2)cc1	101.4	88.3	86.5	-23.4
Cc1cc(=O)nc2c3ccccc3n(C(C)C(=O)NC(C)C)n12 (stereo not drawn)	99.5	95.3	91.3	0.4
CCOC(=O)c1c(NC(=O)c2ccc(CN3CCc4ccccc4C3)cc2)sc2c1CCC2	102.8	.	.	-22.8
COCCNC(=O)Cn1cc2c(n1)-c1c(oc(C(=O)N3CCCC3)c1C)CC2	69.8*	106.0	91.5	.
CSc1nc2ccccc2n1CC(=O)Nc1c(C)cccc1C	107.4	101.9	95.8	-1.9
CN(C)c1ncnc2c1cnn2C	99.8	101.2	89.3	-5.7
CC(C)c1ccc2c(c1)c1c3c(cncn32)CCC1	.	94.5	93.5	-17.1
OC(COC(c1ccc(Cl)cc1)c1ccc(Cl)cc1)CN1CCCC1 (stereo not drawn)	.	102.6	85.2	-7.6
O=C(NC1CCCCC1)N1CCc2cc(S(=O)(=O)N3CCCC3)ccc21	102.8	.	.	-21.9
CCn1cc2nc(SCC(=O)Nc3ccc(OC)cc3OC)n(Cc3ccc(Cl)cc3)c(=O)c2n1	101.3	91.6	84.0	-13.3
Cc1onc(C(=O)NN)c1-c1csc(-c2ccccc2)n1	99.2	88.7	64.0	-46.9
CC(C)Oc1ccc(C(=O)NCC(=O)N2CCN(S(=O)(=O)/C=C/c3ccccc3)CC2)cc1	.	101.5	94.9	-10.6

Full records, quoted from the list. Order of screens: GIV Gai3 FP | Sa growth 42C | Sa growth 42C second temp | HCMV NEC inh
`CN(C)c1ncnc2c1cnn2C` is entered as 99.8 | 101.2 | 89.3 | -5.7
`CCn1cc2nc(SCC(=O)Nc3ccc(OC)cc3OC)n(Cc3ccc(Cl)cc3)c(=O)c2n1` is entered as 101.3 | 91.6 | 84.0 | -13.3

Additional records follow.
SMILES	GIV Gai3 FP	Sa growth 42C	Sa growth 42C second temp	HCMV NEC inh
C1CCC(CNCC2CCCO2)CC1 (stereo not drawn)	102.5	100.9	97.1	-8.9
CNc1sc(C(=O)c2ccc(OC)c(OC)c2)c(N)c1C#N	99.3	59.6	72.6	-109.5
CCOC(=O)CN(c1ccc(C)cc1)C1SC(=O)N(Cc2cccc(C(=O)O)c2)C1=O (stereo not drawn)	95.3	93.1	83.3	-11.3
CCC(C(=O)NC1CCCC1)N(Cc1ccc2c(c1)OCO2)C(=O)c1snc(C(N)=O)c1N (stereo not drawn)	92.7	96.9	99.6	-40.1
Cc1sc2nc(CN3CCC(C)CC3)[nH]c(=O)c2c1C	.	94.5	92.9	-9.4
COc1cccc(NC(=O)c2cc3ccccc3oc2=O)c1	.	100.7	87.7	-2.4
CCC1CCCCN1C(=O)CSc1nnc(-c2ccc(OC)c(OC)c2)o1 (stereo not drawn)	103.2	113.5	82.3	-4.2
Cc1ccccc1COC(=O)c1nn(-c2ccccc2)nc1N	109.3	98.9	88.6	-12.9
O=C(Nc1ccccc1N1CCCCC1)c1ccc2ncccc2c1	100.0	116.3	93.9	-8.4
Cc1cccc(Nc2ncc(NC(=O)c3cccc(F)c3)c(Nc3cccc(C)c3)n2)c1	103.8	116.2	99.7	-4.7
O=C(CNc1ccccc1-c1ccccc1)NCc1ccccc1	.	104.0	99.5	-1.6
O=S(=O)(/C=C/c1ccccc1)c1ccc(F)cc1F	102.0	105.1	102.8	-3.5
Cc1c(Cl)cccc1-n1nc(C)c2c(C)cc(=O)n(CC(=O)N3CCCc4ccccc43)c21	94.6	102.3	74.1	.
CCc1ccccc1NC(=O)c1noc2c1CC(C(C)(C)C)CC2 (stereo not drawn)	101.9	97.5	91.9	-6.6
O=C(OCc1cc(=O)oc2cc(O)ccc12)c1ccc(C(F)(F)F)cc1	.	96.1	88.1	-24.9
CC(=O)N1CCCc2cc(S(=O)(=O)N3CCC(C(=O)NCc4cccc(C)c4)CC3)ccc21	101.4	97.1	79.0	.
Cc1ccc2o/c(=N\O)c(C(N)=O)cc2c1	108.5	53.5	2.7	-100.9
Cc1nc2cc(C(=O)c3ccccc3)ccc2[nH]c1=O	119.7	109.4	89.4	-75.8
CCN(CC)Cn1c(=S)sc2ccccc21	93.8	85.2	40.0	-7.0
CN(C)/C=C1/C(=O)N(c2ccccc2)N=C1C(F)(F)F	107.1	86.0	90.2	-32.7
COc1cc2c(cc1OC)C(C#N)N(C(=O)c1ccccc1)C=C2 (stereo not drawn)	.	96.7	84.2	-11.6
CCC1CCCCN1C(=O)COC(=O)c1ccc(C#N)cc1 (stereo not drawn)	.	107.8	88.0	-20.1
CCSc1nnc(CNC(=O)C23CC4CC(CC(C4)C2)C3)n1CC	96.3	99.9	98.1	-1.3
COc1ccc(CCN2CC(=O)N3CCCC(C4=CC(=O)C=CC4=O)=C3C2=O)cc1OC	103.1	80.2	56.1	-46.1
Cc1ccc(N2CC(NC(=O)OCCN(C)C)CC2=O)cc1 (stereo not drawn)	97.7	100.9	90.4	-17.6
O=C(Nc1ccccc1)c1scc2c1CCCC2	.	75.1	82.4	-12.2
CCn1nc(SC(C)C)n2c(=O)c3c(nc12)-c1ccccc1CC3(C)C	102.1	.	.	-27.0
CCOCCCNC(=O)c1cccn1-c1cccnc1	105.9	.	.	-28.7
CCCCN(C)C(=O)Cn1c(=O)oc2ccccc21	101.1	107.3	93.7	-21.1
CCc1ccc(NC(=O)NC(C)c2c(-n3cccc3)sc3c2CCCC3)cc1 (stereo not drawn)	98.8	92.5	83.5	.
COc1cccc(Nc2nnc(-c3cc4ccc(O)cc4oc3=O)s2)c1	-69.2*	109.9	85.6	.
COc1cccc(C2C(C(=O)Nc3nc4ccccc4s3)=C(C)NC3=C2C(=O)CCC3)c1OC (stereo not drawn)	105.4	.	.	-12.5
CCc1c(O)nc(N)[nH]c1=O	100.3	100.1	92.9	-22.3
COc1ccc(C2=NS(=O)(=O)N(C)C(C(=O)N3CCC(C(N)=O)CC3)=C2)cc1	108.1	102.1	99.1	.
COc1ccc(NC(=O)NCCCn2c(-c3ccncc3)nc3cccnc32)cc1	106.0	.	.	-8.5
CCOC(=O)c1oc2ccc(Br)cc2c1CSc1nc2ccccc2c(=O)[nH]1	.	95.4	90.7	-17.1
COc1ccccc1C1(CC(=O)O)CCOC(C)(C)C1 (stereo not drawn)	104.7	105.7	92.8	.
CCCn1c(C(O)(c2c(C)nn(CCO)c2N)C(F)(F)F)nc2ccccc21 (stereo not drawn)	.	104.7	92.2	-14.8
Cc1nc(-c2ccc(N3CCN(C(=O)C4CC(=O)N(c5cccc(Cl)c5)C4)CC3)cc2)no1 (stereo not drawn)	104.4	.	.	-39.8
O=C(O)CC1(CC(=O)Nc2ccc(Cl)cc2)CCCC1	99.1	174.0	74.1	.
COc1cccc(N2CCN(c3nc4ccc(C(=O)c5ccccc5)cc4n4c(C)nnc34)CC2)c1	101.6	84.3	87.0	.
COC(=O)c1ncn2c1C(=O)N(Cc1ccccc1C)C(C)(C(=O)NC1CCCC1)C2 (stereo not drawn)	96.3	.	.	-18.9
O=C(c1ccccc1F)n1c2c(c3ccccc31)CCCC2	107.0	85.6	95.7	.
CCOc1ccc2ccccc2c1C=C1C(=O)N(C)C(=S)N(C)C1=O	102.2	88.7	84.7	.
CCOC(=O)c1sc(-n2[nH]c(C)cc2=O)nc1C	.	73.5	50.9	-11.6
N=S(Cc1ccc(Br)cc1)Nc1ccccc1 (stereo not drawn)	101.4	79.2	91.2	-12.1
NC(=O)C1CCN(Cn2c(SCc3ccccc3)nc3ccccc32)CC1	.	98.2	87.9	-35.2
Cc1sc2ncn(CC(=O)NCC(=O)O)c(=O)c2c1C	93.6	92.2	87.7	-10.2
OC(COC1CCCCC1)Cn1cnc2ccccc21 (stereo not drawn)	103.6	110.3	79.2	11.4
O=C(COc1cccc2ccccc12)N1CCN(S(=O)(=O)c2ccc3c(c2)OCCO3)CC1	.	86.9	91.8	-31.8
O=C1NC2=C(CCc3ccccc32)C(c2ccccc2)N1 (stereo not drawn)	104.7	118.0	92.8	.
COc1ccc2c(c1)c(=O)c(S(=O)(=O)c1ccccc1)cn2CC(=O)Nc1ccc2c(c1)OCO2	104.7	109.5	75.6	-34.1
CCC(=O)Nc1ccc2c(c1)ncn2C(C)(C)C	.	108.8	88.1	-14.6
Cc1ccc(CCNC(=O)C2CCN(S(=O)(=O)c3ccc4c(ccn4C)c3)CC2)cc1	106.6	96.5	90.2	.
O=C(Cn1c(=O)oc2cc(S(=O)(=O)NC3CCCC3)ccc21)NCc1ccc(F)cc1	101.2	112.2	89.5	-13.9
C/C=C/c1c(F)c(F)c(Oc2ccc(C(=O)O)cc2)c(F)c1F	101.5	34.4	15.0	-16.3
CC1CC(=O)C2=C(C1)Nc1nc3ccccc3n1C2c1cccs1 (stereo not drawn)	97.7	90.4	91.2	.
CCC(CO)Nc1nc(NCc2ccccc2)c2ncn(C(C)C)c2n1 (stereo not drawn)	99.7	.	.	-2.1&-1.8&2.8&2.2&8.3&-16.1
CN(CC[C@@H](Oc1ccc(C(F)(F)F)cc1)c1ccccc1)CC(=O)O	103.5	.	.	1.2
O=C(Nc1ccc(-c2nc3ccccc3s2)c(O)c1)c1ccccc1	105.9	105.2	90.0	.
Next section
SMILES	GIV Gai3 FP	Sa growth 42C	Sa growth 42C second temp	HCMV NEC inh
Cc1cc(C)n(CCc2nc3c4ccccc4n(CC(=O)c4ccc(F)cc4)c(=O)n3n2)n1	101.9	.	.	-2.2
CCOc1ccc(C(=O)Nc2ccc(S(=O)(=O)Nc3nc(C)cc(C)n3)cc2)cc1	101.3	.	.	-17.2
CCn1cc(C(=O)NCCc2ccccc2)c(=O)c2cc(S(=O)(=O)N3CCCCCC3)ccc21	97.1	104.9	83.1	-20.5
CCc1ccc(NC(=O)C(C)OC(=O)c2ccncc2)cc1 (stereo not drawn)	.	100.5	96.7	6.1
N#Cc1oc2ccccc2c1NC(=O)COC(=O)c1c2c(nc3ccccc13)CCCCC2	.	99.4	75.8	-28.1
O=C(c1ccc(Cl)cc1)N1CCCn2c1nc1ccccc12	103.6	136.9	89.1	-8.3
Cc1nc2ccccc2n1C(C)C(=O)O (stereo not drawn)	102.5	94.6	75.2	-31.0
COc1ccc(COC(=O)C2=C(C)NC3=C(C(=O)CC(C)(C)C3)C2c2cc3c(cc2[N+](=O)[O-])OCO3)cc1 (stereo not drawn)	104.3	.	.	-19.8
COc1cc2c(cc1OC)C(SC)=NC(C)(C)C2	102.2	88.5	79.3	-23.9

An excerpt from above in order of number of heavy atoms, high to low:
SMILES	GIV Gai3 FP	Sa growth 42C	Sa growth 42C second temp	HCMV NEC inh
COc1ccc(COC(=O)C2=C(C)NC3=C(C(=O)CC(C)(C)C3)C2c2cc3c(cc2[N+](=O)[O-])OCO3)cc1 (stereo not drawn)	104.3	.	.	-19.8
COc1ccc2c(c1)c(=O)c(S(=O)(=O)c1ccccc1)cn2CC(=O)Nc1ccc2c(c1)OCO2	104.7	109.5	75.6	-34.1
CCn1cc(C(=O)NCCc2ccccc2)c(=O)c2cc(S(=O)(=O)N3CCCCCC3)ccc21	97.1	104.9	83.1	-20.5
O=C(COc1cccc2ccccc12)N1CCN(S(=O)(=O)c2ccc3c(c2)OCCO3)CC1	.	86.9	91.8	-31.8
Cc1ccc(CCNC(=O)C2CCN(S(=O)(=O)c3ccc4c(ccn4C)c3)CC2)cc1	106.6	96.5	90.2	.
CCOc1ccc(C(=O)Nc2ccc(S(=O)(=O)Nc3nc(C)cc(C)n3)cc2)cc1	101.3	.	.	-17.2
CN(CC[C@@H](Oc1ccc(C(F)(F)F)cc1)c1ccccc1)CC(=O)O	103.5	.	.	1.2
O=C(Nc1ccc(-c2nc3ccccc3s2)c(O)c1)c1ccccc1	105.9	105.2	90.0	.
CC1CC(=O)C2=C(C1)Nc1nc3ccccc3n1C2c1cccs1 (stereo not drawn)	97.7	90.4	91.2	.
C/C=C/c1c(F)c(F)c(Oc2ccc(C(=O)O)cc2)c(F)c1F	101.5	34.4	15.0	-16.3
CCc1ccc(NC(=O)C(C)OC(=O)c2ccncc2)cc1 (stereo not drawn)	.	100.5	96.7	6.1
O=C1NC2=C(CCc3ccccc32)C(c2ccccc2)N1 (stereo not drawn)	104.7	118.0	92.8	.
OC(COC1CCCCC1)Cn1cnc2ccccc21 (stereo not drawn)	103.6	110.3	79.2	11.4
CCC(=O)Nc1ccc2c(c1)ncn2C(C)(C)C	.	108.8	88.1	-14.6
Cc1nc2ccccc2n1C(C)C(=O)O (stereo not drawn)	102.5	94.6	75.2	-31.0
